# Bioassay records from PubChem BioAssay.
# TRPML1 agonist: human mucolipin-1 channel agonism | Q9GZU1 | TRPML1-expressing cells, Ca2+ dye fluorescence, FDSS; host cell line not named in the record; reference of the full effect not given here | activation, % (test concentration not listed) | 410,000 compounds, 0.12% hits; in the data active = activation above about 50%; inconclusive = about 30% to 50%; inactive = below about 30%; also: 0% is about no effect; the text of the record puts the active cut at 80%
# Target sequence (Q9GZU1 whole entry, looked up): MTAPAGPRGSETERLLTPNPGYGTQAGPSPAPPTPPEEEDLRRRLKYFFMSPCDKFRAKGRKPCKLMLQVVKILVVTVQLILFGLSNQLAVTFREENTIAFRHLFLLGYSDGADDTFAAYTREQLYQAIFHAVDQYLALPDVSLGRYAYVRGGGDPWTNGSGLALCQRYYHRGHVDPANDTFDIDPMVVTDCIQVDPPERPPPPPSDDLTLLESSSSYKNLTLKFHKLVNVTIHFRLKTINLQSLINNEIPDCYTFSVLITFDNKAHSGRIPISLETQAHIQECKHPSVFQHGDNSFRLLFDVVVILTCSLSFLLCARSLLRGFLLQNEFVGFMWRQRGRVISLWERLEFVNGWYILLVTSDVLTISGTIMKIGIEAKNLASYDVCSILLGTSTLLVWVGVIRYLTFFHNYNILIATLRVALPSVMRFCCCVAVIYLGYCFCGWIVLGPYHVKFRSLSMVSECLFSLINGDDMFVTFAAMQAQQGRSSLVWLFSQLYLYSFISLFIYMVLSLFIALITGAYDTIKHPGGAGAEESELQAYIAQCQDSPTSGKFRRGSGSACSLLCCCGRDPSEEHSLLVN
#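 Agonist activity was taken from a 110 s kinetic Ca2+ dye read on the FDSS after pinning compounds onto TRPML1-DL cells. The cells were seeded at 1,500/well with Tet inducer, incubated about 16 h, then dye-loaded at room temperature.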
# D2 PAM: positive allosteric modulators of human D2 dopamine receptor; potentiation, % (concentration not given with the values); AID 624464; 360,000 compounds, 0.23% hits; P14416; DiscoveRx D2 beta-arrestin cells, luminescence, 90 min; 100% = 57 uM dopamine signal; active = potentiation of 50% or more; inconclusive = 30% to 50%; inactive = 30% or less;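 also: tested on top of an EC20 dose of dopamine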
# Target sequence (P14416 whole entry, looked up): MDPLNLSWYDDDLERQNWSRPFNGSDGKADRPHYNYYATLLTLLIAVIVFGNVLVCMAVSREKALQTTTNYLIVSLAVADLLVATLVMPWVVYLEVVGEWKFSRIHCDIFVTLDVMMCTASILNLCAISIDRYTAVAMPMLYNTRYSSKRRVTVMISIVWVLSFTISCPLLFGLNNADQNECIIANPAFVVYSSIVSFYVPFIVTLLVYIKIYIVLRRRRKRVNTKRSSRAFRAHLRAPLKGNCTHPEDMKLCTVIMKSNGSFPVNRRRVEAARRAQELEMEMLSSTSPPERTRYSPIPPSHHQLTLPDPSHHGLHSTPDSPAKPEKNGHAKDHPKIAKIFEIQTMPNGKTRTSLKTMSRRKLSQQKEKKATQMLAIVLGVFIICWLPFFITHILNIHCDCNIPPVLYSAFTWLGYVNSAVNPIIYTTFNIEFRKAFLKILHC
#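 D2 cells co-treated with compound plus 50 nM dopamine (EC20) for 90 min at 37 deg C to detect potentiation. Beta-arrestin recruitment was read as enzyme-fragment luminescence after 1 h at ambient temperature. Full response was set by 57 uM dopamine.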
# D2 agonist: human D2 receptor agonism in beta-arrestin assay. P14416. DiscoveRx PathHunter D2 beta-arrestin, luminescence, 90 min; 100% = 57 uM dopamine signal. activation, % (concentration not given with the values). 360,000 compounds, 0.084% hits; in the data active = activation above about 40%; inconclusive = about 15% to 40%; inactive = below about 15%; also: the text of the record calls up to 30% inactive
#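 Agonist mode: compounds alone added to overnight-plated D2 PathHunter cells for 90 min at 37 C, with 57 uM final dopamine (EC100) defining full response. Beta-arrestin recruitment detected by chemiluminescent reagent, read after 1 h at ambient temperature.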
# Six1-Eya2 inh: Six1/Eya2 interaction inhibition. AlphaScreen GST-Six1/His-Eya2 binding, biochemical; hits give low values; control for the full effect not named in the record. 360,000 compounds, 0.56% hits. AID 651725. activity change, % (test concentration not listed). Q15475+O00167; in the data active = activity change below about -65%; inconclusive = about -30% to -65%; inactive = above about -30%; also: % is scaled to controls: 0 for no effect and ±100 for the full control effect
#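 Homogeneous AlphaScreen proximity assay pairing GST-Six1 with His-tagged Eya2 (added as 5X mix: 250 nM and 500 nM) in 50 mM Tris pH 8.0, 300 mM NaCl, 1 mM TCEP. Glutathione donor and nickel acceptor beads; 1 h, 37 °C, dark.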
# TRPML1 inh: blocks the human TRPML1 channel. Q9GZU1. TRPML1-inducible cells, Ca2+ dye fluorescence, FDSS; hits give low values; inhibition of EC80 agonist-evoked calcium signal. activity change, negative = inhibition, % (no concentration beside the values). 390,000 compounds, 0.02% hits; in the data active means activity change below about -50%; inconclusive means about -30% to -50%; inactive means above about -30%;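 also: stimulus is agonist 54-4 at its EC80 concentration; % is scaled to controls: 0 for no effect and ±100 for the full control effect; compound concentration not given in the record; the text of the record puts the active cut at -80%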
#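 Calcium fluorescence in TRPML1-DL cells induced overnight with Tet: a 110 s read after compound pin addition, then a 110 s antagonist read after challenge with 54-4 at 4 uM final (EC80).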
# PINK1 expr mod: modulators of PINK1 expression. AID 624263. 410,000 compounds, 0.2% hits. Potency, µM (highest dose often 76.6 µM), without a hit: at the top dose activation (PINK1 increase), usual class: activators. PINK1 immunofluorescence, high-content cytometry, 24 h; active = well fitted activation curve with a large enough effect; inconclusive = small, poorly fitted or top-dose-only effect; inactive = flat fitted curve, though single readings scatter; cell line not stated here;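 also: potency is read from the fitted curve at half-maximal effect; % of control where 0% means no effect; nearly all actives have a fitted effect of over 65% in size; a mitochondrial uncoupler was the plate control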
#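 A stable cell line was treated with compounds at 5 concentrations for 24 hours, with CCCP as control. PINK1 levels and mitochondrial localization were measured by immunofluorescence with mitochondrial, cell and nuclear markers after fixation, read by laser-scanning cytometry.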
# * hit, by the source's call; ? = inconclusive; / = not tested or not shown; & = joins results of further samples; [ ] = another dose, or the depositor's remark.
SMILES,TRPML1 agonist,D2 PAM,D2 agonist,Six1-Eya2 inh,TRPML1 inh,PINK1 expr mod
COc1ccc(CC2(CO)CCN(Cc3cnn(-c4ccc(F)cc4)c3)CC2)cc1,0.7,-17,-5.1,-2,16,-1.4%
CC1CCCC(NC(=O)C2CCN(S(=O)(=O)c3cnc[nH]3)CC2)C1C (stereo unspecified),-0.7,5,1.5,3,20,0.1%
O=C(CNC(=O)c1ccccc1F)NCCc1ccccc1F,0.5,-2,-2.8,2,-19,1.1%
COc1cc(-c2cc3n(C)c(C)c(CCC(=O)NC4CCC(C)CC4)c(=O)n3n2)cc(OC)c1OC (stereo unspecified),-0.5,/,/,/,-5,3.1%
CCCNC(=O)c1ccc2c(c1)N=C(C)c1c(C)ccc(C)c1S2,1.3,/,/,/,8,2.2%
Nc1nc(NCCO)nc(NCc2ccccc2)c1[N+](=O)[O-],-0.8,-7,0.0,1,27,0.2%
CCCOc1ccc(C2=CSC3=NCCN23)cc1Cl,3.0,-13,5.0,?,21,-1.0%
COC(=O)c1cccc(S(=O)(=O)N2CCN(c3nc4ccccc4s3)CC2)c1,1.4,8,-2.7,-1,32,?
COc1ccccc1CNC(=O)c1ccccc1C(=O)NC(CC(C)C)C(=O)NCc1ccccc1OC (stereo unspecified),1.7,3,4.9,4,16,0.9%
CCO[C@H]1OC(C(=O)N2CCOCC2)=C[C@@H](c2ccc(Br)cc2)[C@@H]1CCCO,-0.6,-10,-2.3,5,11,1.4%
Cc1cn(C2CCCCC2)c(=O)n(-c2ccccc2)c1=O,0.0,-24,0.5,1,10,1.0%
Cc1ccc2nc(-c3ccccc3)oc(=O)c2c1,-1.0,-2,0.8,1,-9,0.6%
O=C(Nc1ccn(CCCN2CCC(N3CCOCC3)CC2)c(=O)n1)OCc1ccccc1,-0.2,-2,-2.9,5,-8,-1.0%
CC(OC(=O)/C=C/c1cccc(Cl)c1)C(=O)NC1CCCCC1C (stereo unspecified),-1.0,-16,-5.3,3,2,14%
Cc1ccc(Oc2ccc(S(=O)(=O)NCC(C)(C)N3CCOCC3)cc2)cc1,-1.4,-10,-4.8,-22,-6,0.9%
CCc1sc(Nc2cccc(C)c2)nc1-c1cc2cccc(OC)c2oc1=O,-0.8,/,/,/,25,2.7%
CCOC(OCC)P(=O)(C(C)C)C(C)C,-0.7,0,-2.7,-14,13,15%
COC(=O)c1cc2oc3ccccc3c2n1CC(=O)Nc1ccc(F)c(Cl)c1,2.9,/,/,/,-8,-0.6%
Cc1ccccc1N1C(S)=C(C#N)C(=O)NC12CCCCC2,-0.1,8,-4.9,14,-4,1.0%
CCOC(=O)N1CCN(C(=O)CSc2nc(-c3cccc(C)c3)ns2)CC1,2.1,-3,-2.4,2,-3,-2.5%
Cc1ccc(OCc2cc(=O)n3c4c(sc3n2)CCCC4)c(C)c1,0.2,/,/,/,-15,2.7%
Cc1ccccc1NC(=O)c1cccc2c(=O)c3c([nH]c12)CCCC3,-0.4,/,/,/,27,-0.4%
CC(C)Cn1c(Br)nc2c1c(=O)n(CCC#N)c(=O)n2C,-0.2,-5,2.8,6,16,0.5%
CCn1nnnc1NCc1ccc(N2CCCC2)cc1,0.8,0,0.2,-30,3,0.6%
CCOC(=O)CC(NC(=O)Cn1nnc(-c2ccccc2F)n1)c1ccccc1Cl (stereo unspecified),1.2&2.5,-5,-0.8,-5,9&5,0.2%&-1.1%
CCOC(=O)C1CCCN(C(=O)N2CCOCC2)C1 (stereo unspecified),1.1,8,-1.8,3,37,-0.9%
CCOC(=O)/C=C1\Nc2ccccc2SC1=O,1.4,2,-2.6,4,-6,-0.5%
COc1ccc(OC)c(NC(=O)c2ccc(S(=O)(=O)N3CCN(C)CC3)cc2)c1,0.0,10,6.0,-2,-17,0.7%
CC(C)C(NC(=O)C1CCCCC1)C(=O)NC1CCCC(C)C1C (stereo unspecified),-1.1,-3,-0.6,2,2,3.8%
Cc1ccc(CNC(=O)CS(=O)(=O)c2cccc3nsnc23)cc1,0.2,/,/,/,-14,-4.3%
CCc1nn(CC(=O)NCCCN2CCOCC2)c(=O)c2cc3cc(F)ccc3n12,0.1,-12,-2.5,-9,5,1.4%
CC(NC(=O)CNC(=O)c1ccc2c(c1)OCO2)c1ccc(S(N)(=O)=O)cc1 (stereo unspecified),0.8,-2,-1.7,2,-10,0.8%
Cc1c(S(=O)(=O)c2cccc(Cl)c2)nnn1-c1cccc(C(F)(F)F)c1,0.7,/,/,/,29,3.0%
O=C(c1ccco1)N1CCN(c2ncnc3c2nnn3Cc2ccccc2Cl)CC1,5.3,4,0.5,-17,11,2.2%
COC(=O)[C@]1(C)N[C@H](CN(C)C(=O)C2CCCCC2)[C@@H]2C(=O)N(C)C(=O)[C@@H]21,-0.4,/,-2.1,8,6,-0.2%
O=C(CNCCc1ccc(F)cc1)Nc1cc(F)ccc1F,3.1,-14,0.0,9,-10,1.5%
Cc1cccc(N(CC(=O)N2CCN(c3ccccc3F)CC2)S(C)(=O)=O)c1,0.2,-29,7.0,-9,-5,-0.5%
O=C1OCC(CC2=C(O)C(=O)OC2)=C1O,0.8,0,-1.0,6,-8,-1.0%
Cc1ccccc1OCc1nnc(SCC(=O)Nc2ccc3nc(SCC(=O)Nc4ccccc4)sc3c2)n1C,0.9,-8,-0.6,3,-7,6.9%
COCCNC(=S)N1CCC(Cc2ccccc2)CC1,3.5,?,6.3,6,-6,-0.2%
COc1ccc(COC(=O)CCN=C2NS(=O)(=O)c3ccccc32)cc1F,-0.6,17,-2.7,2,2,0.9%
COCCCNC(=O)c1ccc(CSc2nc3cccnc3n2Cc2ccc(OC)cc2)cc1,0.7,/,/,/,-12,13%
CSc1nsc(SCC(=O)Nc2ccc(F)cc2)n1,2.4,-5,-2.9,-2,-15,0.8%
CCN(CC)CCNC(=O)c1cc2c(=O)oc3ccc(C)cc3c2s1,-0.8,/,/,/,-9,0.0%
COc1cc(/C=C/c2ccc3cccc(O)c3n2)ccc1O,-0.3,-24,8.3,-2,21,5.8%
CCOC(=O)c1c(C)[nH]c(C(=O)Cn2c(=O)c3c(ncn3CC)n(Cc3ccccc3)c2=O)c1C,0.8,-2,3.7,-22,15,3.1%
CCn1cc(C(=O)NCCC(C)C)c(=O)c2cc(S(=O)(=O)N3CCCCC3)ccc21,-0.7,-11,-3.0,2,4,4.3%
Cc1ccc(C(=O)Nc2ccc(Oc3cccc(C(F)(F)F)c3)nc2)cc1,1.5,-17,5.2,4,-8,11%
CCO/C(C)=C1\C(=O)Nc2ccccc21,0.1,-23,-2.7,4,-12,-2.4%
CCOC(=O)C1=C(COC(=O)/C=C/c2ccccc2)NC(=O)NC1C (stereo unspecified),-0.8,9,-0.8,7,11,-1.2%
Cc1oc(-c2cccs2)nc1CS(=O)CC(=O)NCCc1ccccc1 (stereo unspecified),-0.2,-10,-4.9,-2,3,-1.2%
CC1Sc2ccc(Cl)cc2-c2nc(N)ncc21 (stereo unspecified),0.6,-8,-3.3,10,-5,-0.7%
COc1cc2c(cc1OC)C(c1ccc(-c3ccc(Cl)c(Cl)c3)o1)=NCC2,1.6&0.1,-12,0.3,-13,19,-4.5%&3.1%
CCOc1ccc(CCNC(=O)C2CCN(S(=O)(=O)N3CCCCC3)CC2)cc1OCC,0.1,-19,-3.1,11,-16,7.2%
Cc1ccc(NC(=O)C(OC(=O)c2ccccc2Cl)c2ccccc2)cc1Cl (stereo unspecified),0.3,-13,-2.2,9,-4,8.3%
CCCCNC(=S)NNC(=O)c1csc(C)c1C,0.5,-28,-7.8,13,-22,1.6%
CCc1c(-c2ccccc2)nc2nc(C)c(C)nn12,0.3,-6,-3.9,29,8,1.5%
CCN(CC)c1ccc(/C=N/NC(=O)c2ccccn2)cc1,0.0,-4,-2.2,-2,-3,1.8%
O=C(Nc1ccccc1C(=O)NCC1CCCO1)c1ccc(Cl)cc1Cl (stereo unspecified),-0.3,-6,-3.6,1,5,-0.3%[38.3 µM]
COc1cccc(C(c2sc3nc(-c4ccco4)nn3c2O)N2CCC(C)CC2)c1 (stereo unspecified),3.4,/,/,/,20,9.4%
# Continuation.
SMILES,TRPML1 agonist,D2 PAM,D2 agonist,Six1-Eya2 inh,TRPML1 inh,PINK1 expr mod
CCOc1cccc(/C=N/Nc2nc(N3CCCC3)nc(N3CCCC3)n2)c1O,0.2,-12,-6.1,2,2,8.5%
Cc1cc(Cl)ccc1C(O)c1ncc(-c2ccccc2C(F)(F)F)[nH]1 (stereo unspecified),0.8,-13,-1.8,-6,/,8.0%
CC(C)(C)OC(=O)N1CCN(C(=O)c2[nH]cnc2C(=O)Nc2nccs2)CC1,0.1,-4,-6.5,?,-13,-0.6%
O=C1C(=O)N(CCS(=O)(=O)c2ccccc2)c2ccccc21,3.7,-32,-20,-2,27,2.9%
O=c1[nH]c(=S)[nH]c2c1C(c1ccc(F)cc1)OC(CCC(F)(F)F)C2 (stereo unspecified),-0.6,-7,-2.6,1,-4,3.5%
CC1(C)OC(=O)C(=Cc2ccc[nH]2)C(=O)O1,0.6,-8,1.8,2,12,2.1%
COc1cccc(CC2(CO)CCN(Cc3ccc4cccc(F)c4n3)CC2)c1,0.0,-23,1.1,-3,12,-0.4%
COC(=O)C1C2C=CC3(CN(Cc4cccs4)C(=O)C13)O2 (stereo unspecified),-0.4,9,0.8,9,-9,-1.0%

# 11 entries already listed, ordered by formula weight, lowest first.
SMILES,TRPML1 agonist,D2 PAM,D2 agonist,Six1-Eya2 inh,TRPML1 inh,PINK1 expr mod
CC1(C)OC(=O)C(=Cc2ccc[nH]2)C(=O)O1,0.6,-8,1.8,2,12,2.1%
CCc1c(-c2ccccc2)nc2nc(C)c(C)nn12,0.3,-6,-3.9,29,8,1.5%
CCN(CC)c1ccc(/C=N/NC(=O)c2ccccn2)cc1,0.0,-4,-2.2,-2,-3,1.8%
COC(=O)C1C2C=CC3(CN(Cc4cccs4)C(=O)C13)O2 (stereo unspecified),-0.4,9,0.8,9,-9,-1.0%
O=C1C(=O)N(CCS(=O)(=O)c2ccccc2)c2ccccc21,3.7,-32,-20,-2,27,2.9%
Cc1cc(Cl)ccc1C(O)c1ncc(-c2ccccc2C(F)(F)F)[nH]1 (stereo unspecified),0.8,-13,-1.8,-6,/,8.0%
O=c1[nH]c(=S)[nH]c2c1C(c1ccc(F)cc1)OC(CCC(F)(F)F)C2 (stereo unspecified),-0.6,-7,-2.6,1,-4,3.5%
O=C(Nc1ccccc1C(=O)NCC1CCCO1)c1ccc(Cl)cc1Cl (stereo unspecified),-0.3,-6,-3.6,1,5,-0.3%[38.3 µM]
CCOc1cccc(/C=N/Nc2nc(N3CCCC3)nc(N3CCCC3)n2)c1O,0.2,-12,-6.1,2,2,8.5%
CC(C)(C)OC(=O)N1CCN(C(=O)c2[nH]cnc2C(=O)Nc2nccs2)CC1,0.1,-4,-6.5,?,-13,-0.6%
COc1cccc(C(c2sc3nc(-c4ccco4)nn3c2O)N2CCC(C)CC2)c1 (stereo unspecified),3.4,/,/,/,20,9.4%
